Screens deposited in PubChem by several laboratories.
Calb FLC – C. albicans growth modulation with fluconazole; C. albicans CaCi-2 (fluconazole-resistant clinical isolate) + fluconazole, Alamar Blue growth, 48 h; growth inhibition, % (test concentration not listed); 300,000 compounds, 0.57% hits;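 active means most replicates above 75%; inconclusive means exactly half above 75%; inactive means most below 75%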;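 further: all wells also contain fluconazole at 8 µg/ml as a sub-toxic cotreatment; 0% = median of DMSO wells and 100% = median of geldanamycin control wells; wells of about 8 µL received 7.5 nL stock; the first replicate is given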
RanGTP-Imp inh – disruptors of Ran-importin-beta complex formation – biochemical, FRET, CFP-Ran, YFP-importin-beta, homogeneous, primary screen; cell-free CFP-Ran/YFP-importin-beta FRET ratio; inhibition, % (test concentration not listed); 300,000 compounds, 1.1% hits;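 active means most replicates above 15%; inconclusive means exactly half above 15%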;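 further: 0% = DMSO wells and 100% = Ran loaded with GDP instead of GTP; wells of about 40 µL received 100 nL stock; the first replicate is given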
Vif TR-FRET – inhibitors of Vif binding to APOBEC3G peptide, primary screen, biochemical, TR-FRET, GST-Vif 1-94, biotin-A3G peptide, dose response retest (AID 1117319) | TR-FRET GST-Vif / biotin-A3G peptide binding; higher % means a stronger effect; test concentration not given here; strong numbers were not always called active | one-dose inhibition, %; IC50 in µM for titrated hits | 260,000 compounds, 0.57% hits;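 active means above the screen mean plus three standard deviations and confirmed in dose response; inconclusive means results disagree or hit not tested in dose response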;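 further: Vif residues 1-94 fused to GST binding biotinylated APOBEC3G peptide 110-148; 0% = full assay without inhibitor and 100% = GST in place of GST-Vif; retest series ran down from 100 µM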
T cruzi repl – T. cruzi replication inhibition. T. cruzi beta-gal in NIH3T3, luminescence, 90 h. inhibition, % (concentration not given with the values). 300,000 compounds, 1.4% hits. AID 1885;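 active means mean inhibition across valid replicates above about 55%, limit read from the data; inconclusive means mean below that limit but half or more replicates reach it; inactive means mean below it, under half of replicates reach it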;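 further: signal also drops with host cell toxicity which is not excluded here; 0% = plate median of DMSO wells and 100% = zero luminescence signal; higher percent means less beta-gal luminescence so fewer parasites; stock transfer was 50 nL into about 50 µL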
Bfl-1 A1 inh – inhibitors of the anti-apoptotic protein A1, read as caspase activation. 330,000 compounds, 0.066% hits. caspase activation, % (concentration not given with the values). AID 2462. MEF A1-2A-BIM cells, Caspase-Glo 3/7 luminescence, 3 h; percent of clofoctol response, vehicle zero;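 active means over half of replicate activation scores above 10%, or exactly half above 10 with the replicate mean above 10; inconclusive means replicate mean below 10 yet half the replicates above 10; inactive means over half of replicates below 10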;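 further: wells of about 30 µL received 50 nL stock; many hits fall short of the cut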
Beta cell apopt – blocks beta cell apoptosis. INS-1E cytokine-induced death, ATP luminescence, 48 h; percent of positive-control rescue, neutral wells zero. protection from apoptosis, % (test concentration not listed). 300,000 compounds, 0.8% hits. AID 435005;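 active means all replicates at 75% or more, or half of them and the mean; inconclusive means half reach 75% but not the mean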;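 further: 0% = cytokine-treated negative control wells and 100% = positive control rescue; higher means more ATP so stronger rescue from cytokine killing; wells of about 40 µL received 100 nL stock; the first replicate is given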
Ecoli rRNA inh – inhibitors of bacterial rRNA selective over humanized ribosomes; GFP signal change (wild-type ribosome), % (no concentration beside the values); E. coli WT GFP vs humanized-ribosome RFP mutants, fluorescence, 24 h; stronger effect = lower value; DMSO median 0, no signal -100; 350,000 compounds, 1.6% hits; AID 720706;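 active means significant combined selectivity score with lowered wild-type GFP, culture density cut under 30%, mutant RFP and density less affected; inactive means any of these conditions unmet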; further: one replicate is shown; some compounds called inactive have numbers as strong as hits
AF4-AF9 inh – MLL-AF4/AF9 protein interaction inhibition; inhibition, % at 10 µM; P42568; AlphaScreen, biotin-AF4 peptide binding to FLAG-AF9; 350,000 compounds, 0.47% hits; AID 651704;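 active means every replicate reaching a set inhibition limit, whatever the replicate mean, cut at about 25% in these data; inconclusive means mean inhibition reaches that limit but some replicates miss it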;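 further: 0% = plate neutral control median and 100% = total signal loss; the record names both 10 and 1 µM as test concentration; the first replicate is given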
Target sequence (P42568 whole entry, looked up): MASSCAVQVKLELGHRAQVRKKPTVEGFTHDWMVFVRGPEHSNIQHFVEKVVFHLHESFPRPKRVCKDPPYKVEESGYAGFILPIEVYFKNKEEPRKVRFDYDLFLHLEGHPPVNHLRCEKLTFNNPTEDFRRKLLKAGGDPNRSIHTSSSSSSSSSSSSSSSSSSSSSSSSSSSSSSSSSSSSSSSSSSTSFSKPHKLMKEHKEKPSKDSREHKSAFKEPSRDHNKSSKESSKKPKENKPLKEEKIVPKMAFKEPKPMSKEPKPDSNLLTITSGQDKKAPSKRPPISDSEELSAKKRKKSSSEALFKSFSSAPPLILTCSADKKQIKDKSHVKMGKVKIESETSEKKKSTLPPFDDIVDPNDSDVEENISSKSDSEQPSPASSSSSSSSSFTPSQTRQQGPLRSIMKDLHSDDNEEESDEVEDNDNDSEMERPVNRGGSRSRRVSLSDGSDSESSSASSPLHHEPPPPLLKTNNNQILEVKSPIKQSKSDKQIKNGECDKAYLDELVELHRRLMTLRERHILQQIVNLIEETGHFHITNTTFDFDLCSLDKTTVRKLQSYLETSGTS
Ecoli rRNA inh OD600 – recorded beside Ecoli rRNA inh, whose call it bears; OD600 change, %; measured here: OD600 growth;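 optical density of the mix in the first replicate; 0 = DMSO median and -100 = no signal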
Ecoli rRNA inh RFP – second read-out of Ecoli rRNA inh, no call of its own (marks repeat the call); RFP signal change, %; measured here: RFP humanized mutant strains;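 first replicate; 0 = DMSO median and -100 = no signal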
* hit, by the source's call; ? = inconclusive; · = no result given. An excerpt; the hit share may differ from the screen's.

SMILES | Calb FLC | RanGTP-Imp inh | Vif TR-FRET | T cruzi repl | Bfl-1 A1 inh | Beta cell apopt | Ecoli rRNA inh | Ecoli rRNA inh OD600 | Ecoli rRNA inh RFP | AF4-AF9 inh
Cc1ccc(S(=O)(=O)N2CCN(CC(=O)N/N=C/c3ccc(Br)s3)CC2)cc1 | 2.6 | 4.0 | · | 1.7 | 0.8 | 0.6 | · | · | · | ·
O=C(Nc1ccc(F)cc1)N1CCN(C(=O)C2CCCO2)CC1 (stereo not given) | 0.0 | -1.2 | · | -11.7 | -0.4 | -0.1 | 13.1 | 13.4 | -2.4 | 0.2
COc1ccc(/C=C/c2cc(C(=O)O)c3ccccc3n2)cc1 | 4.4 | -9.0 | -7.7% | -5.5 | -1.2 | -9.2 | 15.2 | -0.6 | 1.2 | 5.3
COc1ccc(C(CNC(=O)c2ccc(S(=O)(=O)Nc3ccccc3C)cc2)N2CCOCC2)cc1 (stereo not given) | 6.8 | 0.9 | 1.4% | -0.2 | -0.4 | 0.2 | -1.1 | -4.9 | 2.5 | 0.4
COC(=O)C1=C(C)NC(C)=C(C(=O)OC)C1c1ccc(C)o1 | -1.6 | 1.2 | 8.1% | 23.9 | 0.5 | · | · | · | · | 1.1
Cc1cc(NC(=O)CSCC(=O)N(C)Cc2ccc(Cl)c(Cl)c2)no1 | 2.6 | -2.0 | -7.0% | 0.8 | -0.6 | -5.4 | -7.0 | -14.0 | -1.8 | 21.4
CCC(=O)N1CCN(c2ccc(NC(=O)c3c(F)c(F)c(OC)c(F)c3F)cc2)CC1 | 9.1 | -2.3 | -1.5% | 4.1 | -0.2 | 1.1 | · | · | · | ·
CN(c1ccccc1)S(=O)(=O)c1ccc(C(=O)Nc2nnc(C3CC3)s2)cc1 | -6.6 | 5.4 | -1.9% | -2.4 | -0.1 | -2.7 | -3.5 | -5.8 | -0.3 | -9.6
Cc1ccc(-n2cc(CNCCn3nc(C)cc3C)c(-c3ccc(F)cc3)n2)cc1 | 1.4 | 1.9 | 2.8% | 38.0 | 0.4 | 5.0 | -54.4 | -79.8 | -18.6 | 3.7
COc1ccc(C(=O)NCc2nnc(SCC(=O)N3CCCC3)o2)cc1OC | -0.8 | 8.6 | -1.5% | -4.7 | 0.0 | -3.1 | 13.5 | 23.1 | 0.4 | -8.1
O=C(Nc1ccccc1)Nc1ccc2nnsc2c1 | 0.9 | -0.9 | -6.0% | 6.1 | -5.2 | 12.3 | -43.0 | -58.1 | -13.6 | ·
COCCn1c(SCCN2CCOCC2)nc2c1c(=O)[nH]c(=O)n2C | 4.9 | 5.0 | -7.5% | -1.9 | 0.0 | -10.2 | 2.2 | -2.7 | -2.9 | -1.4
O=C(COc1ccccc1)N1CCN(c2ncnc3c2cnn3-c2ccccc2)CC1 | 7.3 | 4.6 | 9.9% | 5.8 | 0.6 | 3.6 | · | · | · | ·
O=C(OCn1ncc(Cl)c(Cl)c1=O)c1cccc(C(F)(F)F)c1 | 98.0* | -3.0 | 24.4% | 54.3 | ? | 6.8 | · | · | · | ·
OC(CSc1c(Cl)cccc1Cl)CN1CCN(c2ccccc2F)CC1 (stereo not given) | -1.0 | ? | 7.6% | 0.3 | -1.0 | 0.0 | · | · | · | ·
C=CCn1c(SCC(C)=O)nc2sc3c(c2c1=O)CCC3 | -2.3 | ? | -4.3% | -1.9 | -0.5 | -4.1 | 1.3 | -1.0 | 1.3 | -0.5
O=C(c1cc2ccccc2o1)N1CCN(C/C=C/c2ccccc2)CC1 | -0.2 | 3.2 | · | 19.0 | 1.0 | -1.1 | · | · | · | 0.4
C[C@H](C(=O)O)c1n[nH]c(=O)c2ccccc12 | -9.7 | -0.2 | 3.0% | -7.4 | -0.3 | -3.8 | · | · | · | ·
Nc1nc2c(ncn2C2C[C@H](O)[C@@H](CO)O2)c(=O)[nH]1 (stereo not given in full) | 6.6 | 2.8 | · | -4.4 | 1.1 | 0.6 | 1.4 | 7.4 | -1.3 | 0.6
COc1cccc(C(C)N(C)Cc2nc(COc3ccccc3)no2)c1 (stereo not given) | 1.2 | -2.3 | 2.5% | 8.4 | -0.1 | 3.2 | -7.1 | -1.6 | 4.1 | -0.4
COc1cc(C(=O)N2CCN(c3ccccc3F)CC2)ccc1OCC(=O)N1CCOCC1 | · | · | · | · | -0.8 | -6.6 | 4.3 | 1.2 | -4.5 | -1.0
CCCn1c(SCC(=O)Nc2nnc(C)s2)nnc1C1CC1 | -1.6 | 0.3 | 4.1% | -10.7 | 0.3 | -2.5 | -4.8 | 9.8 | 8.2 | -2.0
c1ccc2c(Cn3ccnc3)c[nH]c2c1 | -2.3 | 1.5 | 4.4% | 45.2 | -0.3 | -4.0 | · | · | · | ·
COCCn1c(SCC(=O)Nc2cccc(S(N)(=O)=O)c2)nc2cc(Cl)ccc2c1=O | -16.9 | 1.9 | -8.9% | -37.0 | 0.3 | -0.4 | -27.1 | -27.4 | -3.8 | -1.7
O=C(c1noc2c1CCCC2)N1CCN(c2ccccc2)CC1 | -0.1 | 2.5 | ? | -5.2 | 0.4 | -0.3 | -8.7 | 0.6 | -5.1 | 1.3

Next section.
SMILES | Calb FLC | RanGTP-Imp inh | Vif TR-FRET | T cruzi repl | Bfl-1 A1 inh | Beta cell apopt | Ecoli rRNA inh | Ecoli rRNA inh OD600 | Ecoli rRNA inh RFP | AF4-AF9 inh
Cc1cc(NC(=O)COC(=O)COc2ccc(Cl)cc2C)c([N+](=O)[O-])cc1C | -4.7 | 4.5 | 11.8% | 1.2 | -0.2 | -8.6 | · | · | · | ·
OCCC1CN(Cc2cccc3nonc23)CCN1C1CCCCC1 (stereo not given) | -18.7 | 0.5 | -2.8% | -3.2 | -0.5 | -0.9 | 5.3 | 11.9 | -17.9 | 1.9
CC(C)(C)S(=O)(=O)/C(C#N)=N/Nc1ccc(S(N)(=O)=O)cc1 | 0.9 | -0.2 | -8.2% | 1.5 | 0.9 | -3.5 | 11.0 | 13.4 | -0.3 | 1.0
CC(C)Cc1ccc(S(=O)(=O)N2CCOCC2)cc1 | -3.0 | -1.7 | -2.9% | 4.6 | 0.6 | -44.3 | · | · | · | ·
COc1ccc(-n2cnc3cc(C(=O)NCC4CCCO4)ccc32)cc1 (stereo not given) | -3.3 | -0.9 | · | -4.0 | -0.4 | -7.5 | -1.5 | -1.9 | 0.0 | 3.0
COc1ccc(CN2C(=O)c3cccc4cccc(c34)C2=O)cc1 | -6.9 | -0.3 | -14.2% | -9.2 | -0.1 | 3.2 | 9.9 | -3.6 | -2.2 | 2.2
CC(C)[C@@H](C(=O)NC1CC1)N1C(=O)N2CCc3c([nH]c4ccccc34)[C@@]2(C)C1=O | 2.2 | 1.9 | · | -20.2 | -0.2 | -1.5 | · | · | · | 4.4
Cc1ccc(OCc2nnc(SCC(=O)N3C(C)CCCC3C)o2)cc1 (stereo not given) | 1.2 | 23.2 | 0.5% | 1.8 | 0.3 | -0.9 | -15.1 | -17.8 | 0.6 | 1.2
C=CCNC(=O)CN1CCN(C(c2ccccc2)c2ccccc2)CC1 | 4.7 | -4.3 | · | 3.2 | -0.3 | 0.9 | -6.8 | -14.1 | -0.4 | 3.3
Cc1cc(C)cc(NC(=O)C2CCN(c3cnccn3)CC2)c1 | -4.9 | 4.2 | 4.3% | 27.2 | 0.3 | -2.8 | 8.5 | 2.6 | 0.1 | -0.8
CS(=O)(=O)N(CC(=O)Nc1ccccc1F)C1CCCCC1 | 46.0 | 1.9 | · | -10.9 | 1.3 | -5.0 | 9.8 | 12.3 | -1.1 | -0.4
COc1ccc(CN2CCNC(=O)C2CC(=O)NCCCC2CCCC2)c(C)c1C (stereo not given) | -0.3 | 4.2 | -0.7% | 9.5 | -0.5 | -3.4 | -25.6* | -20.2* | 5.3* | -1.1
COc1cc2sc3ccc(-c4ccc(CN5CCOCC5)cc4)cc3c(=O)c2cc1OC | · | · | · | · | -0.3 | 13.8 | -12.3 | -10.4 | 21.1 | 4.7
CC(=O)N(C)c1ccc(NC(=O)c2ccccc2C(=O)O)cc1 | 6.8 | 7.9 | -0.9% | -15.1 | -0.3 | -2.7 | 15.8 | 7.6 | 0.3 | ·
CCn1c(=O)c([N+](=O)[O-])c(NCCc2ccc(OC)c(OC)c2)c2ccccc21 | -14.8 | -4.9 | -3.1% | 25.6 | 0.6 | 6.3 | -3.6 | -18.0 | -18.2 | -1.2
CC(C)[C@H](NC(=O)c1ccccc1F)C(=O)OCCN1C(=O)c2ccccc2C1=O | · | · | 6.5% | · | -0.1 | -1.0 | -6.5 | -3.7 | 2.6 | -14.9
CCNC(=S)NNC(=O)c1cc(C)nc2ccccc12 | -12.6 | -1.3 | · | -15.0 | 2.1 | -9.1 | · | · | · | ·
CC1CC(C)CN(CCCNC(=O)Cn2ncn3cccc3c2=O)C1 (stereo not given) | -5.1 | 1.2 | 1.0% | 2.6 | 0.4 | -1.1 | · | · | · | ·
CC1CC(C)CN(c2ncc3c(n2)CC(c2ccc(Cl)cc2)CC3=O)C1 (stereo not given) | -10.4 | 1.8 | 6.2% | 13.1 | 0.4 | -0.3 | · | · | · | ·
Cc1ccc(C(=O)NCC(c2ccco2)N2CCc3ccccc32)cc1 (stereo not given) | 21.5 | 1.8 | 4.5% | -0.1 | 0.5 | 14.1 | -2.2 | 4.7 | 1.7 | 11.4
CCN(C(=O)CSc1nnc(-c2cccs2)n1N)c1c(N)n(Cc2ccccc2)c(=O)[nH]c1=O | -10.0 | · | · | -5.9 | -0.6 | 0.4 | 6.7 | 8.3 | 0.9 | -3.4
CN1CCCC(OC(=O)c2ccccc2Br)C1 (stereo not given) | -2.6 | ? | -8.6% | -2.0 | 0.3 | · | 9.6 | 13.2 | 1.4 | 1.0
CCN(CC(=O)Nc1cc(S(=O)(=O)N2CCCCC2)ccc1Cl)Cc1ccccc1 | -6.7 | 0.0 | 0.1% | 27.4 | -0.3 | 22.7 | 0.3 | -15.9 | 0.9 | -1.1
CCN1CCN(CCOc2ccccc2-c2ccccc2)CC1 | 6.3 | 1.0 | -0.8% | -6.9 | -0.6 | -2.3 | 4.8 | 7.1 | 2.6 | 2.1
Cc1cc(C(F)(F)F)nc(SCCN2CCOCC2)c1C#N | 2.1 | 0.6 | · | -2.9 | -0.1 | -1.2 | 1.6 | -1.7 | -0.4 | 0.3
Cc1cccc(OCCSc2ncnc3nc[nH]c23)c1 | 41.3 | -0.7 | -2.7% | -2.0 | -1.2 | -3.7 | · | · | · | ·
CCCNCCC(c1ccco1)c1ccccc1OC (stereo not given) | -25.2 | 8.2 | -9.9% | 10.8 | 0.2 | -5.0 | · | · | · | ·
